Menin-MLL FL inh – qHTS Assay for Inhibitors Targeting the Menin-MLL Interaction in MLL Related Leukemias: Competition With Fluorescein Labeled MLL-derived Peptide; AID 1766, 2009; 290,000 tested, under 10 active; Fluorescence polarization, fluorescein-MLL peptide displacement from menin; FP activity change, % at 61.4 µM; inconclusive = falling polarisation curve, or a change in total fluorescence; inactive = total fluorescence flat and polarisation flat or rising; no compound was filed as active; the % refers to the polarisation; negative = inhibition;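 further: % of control where 0% means no effect; inhibitors lower the polarisation; unlabelled MLL peptide was the positive control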
Sfp PPTase inh – qHTS Assay for Inhibitors of Bacillus subtilis Sfp phosphopantetheinyl transferase (PPTase). 4'-phosphopantetheinyl transferase ffp (Bacillus subtilis), Q9F4F7. Biochemical Sfp PPTase activity, qHTS. Potency, µM, without a hit: max response, negative = inhibition, hits mostly inhibitors. 3.5% of 310,000 active. AID 1490, 2009; active means well fitted inhibition curve with a large enough effect; inconclusive means small, poorly fitted or top-dose-only effect, or another doubt; inactive means no such curve, though single readings can be large or run the other way;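 further: the enzyme is Sfp with the accession as filed and its product quenches rhodamine fluorescence; potency means the concentration at half of the fitted maximal effect; 0% = enzyme reaction without inhibitor and -100% = no enzyme wells; top concentration of the series not given in the record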
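After 15 min at room temperature with compound, 15 nM Sfp received 5 uM rhodamine-CoA plus 12.5 uM BHQ-2-ybbR (50 mM Hepes pH 7.6, 10 mM MgCl2). Rate came from the fluorescence difference over 30 min, ex 525/em 598 nm.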
PINK1 modulator – A Quantitative High throughput Screen to Identify Chemical Modulators of PINK1 Expression; PINK1 immunofluorescence, high-content cytometry, 24 h; Potency, µM (top dose mostly 76.6 µM), for the others: at the top dose activation (PINK1 increase), hits mostly activators; 0.2% of 410,000 active; active = well fitted activation curve with a large enough effect; inconclusive = small, poorly fitted or top-dose-only effect; inactive = flat fitted curve, though single readings scatter; cell line not stated here;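 further: potency means the concentration at half of the fitted maximal effect; % of control where 0% means no effect; nearly all actives have a fitted effect of over 65% in size; a mitochondrial uncoupler was the plate control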
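A stable cell line was treated with compounds at 5 concentrations for 24 hours, with CCCP as control. PINK1 levels and mitochondrial localization were measured by immunofluorescence with mitochondrial, cell and nuclear markers after fixation, read by laser-scanning cytometry.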
ClpP mod – qHTS Assay for Activators of ClpP; 1.9% of 340,000 active; AID 651965, 2013; purified B. subtilis ClpP, FRET peptide cleavage, 20 min; ATP-dependent Clp protease proteolytic subunit (Bacillus subtilis (strain 168)), P80244; Potency, µM (doses to about 57.5 µM), for the others: top-dose activity change, negative = active; active = well fitted falling curve with a large enough effect; inconclusive = small, poorly fitted or top-dose-only effect; inactive = no such curve, though single readings can be large or run the other way; further: potency means the concentration at half of the fitted maximal effect; the source files actives as falling curves though it sought activators and does not explain the sign; nearly all actives have a fitted effect of over 65% in size; many hits overshoot -100%
Target sequence (P80244 whole entry, looked up): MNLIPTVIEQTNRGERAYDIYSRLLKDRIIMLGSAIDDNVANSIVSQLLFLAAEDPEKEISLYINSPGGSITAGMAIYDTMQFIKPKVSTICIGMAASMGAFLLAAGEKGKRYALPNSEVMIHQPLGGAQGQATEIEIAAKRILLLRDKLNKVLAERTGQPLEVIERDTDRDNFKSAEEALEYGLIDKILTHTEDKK
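FRET quenching reversal measured ClpP activation: 10 microg/mL B. subtilis ClpP at pH 8 with the FRET-FV decapeptide, read at 430 nm after 320 nm excitation. The 20-min minus 0-min signal was scaled between DMSO/no-enzyme wells and ADEP (5.8 microM final).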
TRPML1 blocker – qHTS for Inhibitors of the Human Mucolipin Transient Receptor Potential 1 (TRPML1); Mucolipin-1 (Homo sapiens), Q9GZU1; TRPML1-inducible cells, Ca2+ dye fluorescence, FDSS; hits give low values; inhibition of EC80 agonist-evoked calcium signal; activity change, negative = inhibition, % (no concentration beside the values); 0.02% of 390,000 active; AID 624415, 2012; in the data active means activity change below about -50%; inconclusive means about -30% to -50%; inactive means above about -30%;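 further: stimulus is agonist 54-4 at its EC80 concentration; on the % scale 0 is the no-effect control and ±100 the full control effect; compound concentration not given in the record; the text of the record puts the active cut at -80%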
Target sequence (Q9GZU1 whole entry, looked up): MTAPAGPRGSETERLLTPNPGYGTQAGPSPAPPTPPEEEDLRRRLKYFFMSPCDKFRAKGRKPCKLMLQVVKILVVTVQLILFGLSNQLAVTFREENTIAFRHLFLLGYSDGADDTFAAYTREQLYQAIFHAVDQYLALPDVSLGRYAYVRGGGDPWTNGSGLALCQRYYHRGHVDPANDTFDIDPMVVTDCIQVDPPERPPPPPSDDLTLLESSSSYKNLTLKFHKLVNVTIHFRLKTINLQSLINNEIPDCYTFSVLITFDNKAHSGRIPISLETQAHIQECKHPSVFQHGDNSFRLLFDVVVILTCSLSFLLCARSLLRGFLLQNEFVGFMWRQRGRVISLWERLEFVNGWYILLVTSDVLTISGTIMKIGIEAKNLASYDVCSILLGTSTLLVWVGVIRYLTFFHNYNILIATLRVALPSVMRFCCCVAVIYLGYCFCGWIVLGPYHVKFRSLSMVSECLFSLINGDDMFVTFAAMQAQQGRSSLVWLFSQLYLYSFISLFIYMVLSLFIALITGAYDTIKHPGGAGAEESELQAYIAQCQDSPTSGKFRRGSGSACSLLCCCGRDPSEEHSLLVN
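TRPML1-DL cells, Tet-induced overnight (~16 h, 37 °C) at 1,500 cells/well, were loaded with Ca8 no-wash dye plus quencher for 45-90 min at room temperature. Compounds were pinned during FDSS kinetic reading; agonist 54-4 at EC80 (4 uM final) then added.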
TRPML1 ag – qHTS for Agonists of the Human Mucolipin Transient Receptor Potential 1 (TRPML1); TRPML1-expressing cells, Ca2+ dye fluorescence, FDSS; host cell line not named in the record; reference of the full effect not given here; activation, % (concentration not given with the values); Mucolipin-1 (Homo sapiens), Q9GZU1; 0.12% of 410,000 active; in the data active = activation above about 50%; inconclusive = about 30% to 50%; inactive = below about 30%; further: 0% is about no effect; the text of the record puts the active cut at 80%
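Agonist activity was taken from a 110 s kinetic Ca2+ dye read on the FDSS after pinning compounds onto TRPML1-DL cells. The cells were seeded at 1,500/well with Tet inducer, incubated about 16 h, then dye-loaded at room temperature.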
TRPV1 potentiator – HTS Assay for Compounds that Act as Potentiators of the Vanilloid Receptor 1; TRPV1-expressing cells, Fluo-8 calcium influx, capsaicin EC20 potentiation; host cell line not named in the record; control for the full effect not named in the record; potentiation, % at 8.33 µM; 0.02% of 320,000 active; AID 540277, 2011; active means potentiation above 80%; inconclusive means 30% to 80%; inactive means below 30%; further: 0% is about no effect
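TRPV1-expressing cells were cultured overnight at 35.5C and loaded with Fluo-8 calcium dye for 40 to 90 min at room temperature. After a 10 s baseline, compound was added and calcium influx was read kinetically for 3 min (ex 480/em 520 nm).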
Active calls of the source: *; ? = inconclusive; / = no result given; & = joins results of further samples; [ ] = dose if it differs, or a comment.

SMILES | Menin-MLL FL inh | Sfp PPTase inh | PINK1 modulator | ClpP mod | TRPML1 blocker | TRPML1 ag | TRPV1 potentiator
COc1ccccc1C(=O)N/C(=N/c1nc(C)cc(C)n1)Nc1ccccc1 | 6.5 | 20% | 2.6% | / | 2 | 2.3 | /
Cn1cnc2cc(NS(=O)(=O)c3ccc(Br)cc3)ccc21 | -0.4 | 0% | -0.5% | 1.3% | -7 | 0.2 | 23
Cc1ccc(COCC(CC(C)C)N2CCN(C(=O)c3cccc(C(F)(F)F)c3)CCC2=O)cc1 (stereo not given) | 0.7 | -7% | 12% | 0.2% | 59 | 0.8 | -23
COc1cc2c(cc1OC)CN(C(=O)CN1CCN(S(=O)(=O)c3ccccc3Br)CC1)CC2 | 0.9 | ? | 2.2% | 1.5% | -4 | 0.4 | -10
COc1cc(-c2nnc(SCC(=O)Nc3cc(C)on3)n2C)cc(OC)c1O | 4.2 | 23% | 6.4%[38.3 µM] | -0.4% | 11 | 0.0 | -17
O=C(Nc1cc(Cl)ccc1-n1cncn1)c1ccc([N+](=O)[O-])s1 | / | -8% | 5µM* | 3.6% | -14 | -0.6 | -17
O=C(C1=NN[C@@H]2C(=O)N(c3cccc(F)c3)C(=O)[C@H]12)C(c1ccccc1)c1ccccc1 | -1.0 | 20% | 1.1% | 2.8% | 4 | 1.3 | -1
CCOC(=O)C(C)Sc1ncc(-c2ccccc2)cn1 (stereo not given) | 0.4 | 11% | 6.1% | / | 11 | 0.6 | -43
Cc1c(C)n(-c2ccccc2)c2ncnc(NCCCN(C)C)c12 | 1.3 | 6% | -0.1% | -6.6% | 0 | 4.0 | -2
Cc1cccc(NC(=O)c2ccc(N3C(=O)C4C5C=CC(C6CC56)C4C3=O)cc2)c1 (stereo not given) | -4.0 | 0% | -0.1% | 5.5% | -5 | 0.8 | -7
CCOC(=O)CN1C(=O)N[C@@H](c2cccc(F)c2)C(C(=O)OC)=C1C | 5.3[11.7 µM] | 2% | 1.7% | -0.4% | -3 | -0.5 | /
Cc1ccnc(OC(C(=O)O)C(OCCc2ccccc2)(c2ccccc2)c2ccccc2)n1 (stereo not given) | 1.0 | 15% | 0.1% | 0.2% | 0 | 0.5 | -4
Fc1ccc(/C=N/N2CCCCC2)c(F)c1 | 3.6 | 9% | 1.8% | -29% | 18 | 1.4 | -30
Cc1cc(N2CCN(C(=O)c3ccco3)CC2)n2ncc(-c3ccccc3)c2n1 | 0.0 | -13% | 2.6% | ? | 13 | -0.2 | -1
COc1ccc(S(=O)(=O)N(C)c2ccc(C(=O)NCc3ccco3)cc2)cc1 | / | 18% | 7.4% | 1.3% | 9 | 0.5 | 5
COc1ccccc1CNC(=O)C1(C)Oc2cccnc2NC1=O (stereo not given) | 2.0 | ? | -0.3% | / | 1 | -0.8 | 8
CN(CC(=O)Nc1ccccc1Br)C(=O)C1CCN(C(=O)c2ccc(Cl)cc2)CC1 | / | / | 3.3% | -1.7% | 5 | -0.2 | /
Cc1ccc(NC(=O)Cn2cccc2)cc1Cl | 4.0 | -20% | 4.3%[38.3 µM] | -0.9% | -3 | 2.4 | -31
CC(C)NC(=O)c1c(O)c2cccc3c2n(c1=O)CCC3 | -0.8 | -5% | 2.9% | -2.5% | 8 | 2.0 | -3
CC(C)c1ccccc1NCC(=O)N1CCN(Cc2ccccc2)CC1 | 1.0 | 9% | 3.6% | -1.8% | 0 | 1.2 | -5
COc1ccc(CNC(=O)C(=O)NCCC2CCCCN2S(=O)(=O)c2ccccc2)cc1 (stereo not given) | / | / | -3.2% | 0.8% | -2 | 1.2 | -1
CC1(C(=O)Nc2ccc3nc[nH]c3c2)CCN1C(=O)C1(c2ccccc2)CC1 (stereo not given) | / | / | 3.6% | 1.7% | / | -0.6 | /
Cc1ccc(C)c(NS(=O)(=O)c2cc(C(N)=O)ccc2C)c1 | 8.3 | 8% | 3.9%[38.3 µM] | -0.7% | 16 | 1.1 | 10
COc1cc2c(cc1OC)/C(=C/C#N)NC(C)(C)C2 | 0.2 | 1% | -2.8% | -9.1% | -3 | -0.7 | 5
O=C(CCCOc1ccccc1)Nc1cccnc1 | 5.1 | 17% | 1.3% | -0.4% | 0 | -1.0 | -10

Further records
SMILES | Menin-MLL FL inh | Sfp PPTase inh | PINK1 modulator | ClpP mod | TRPML1 blocker | TRPML1 ag | TRPV1 potentiator
N#Cc1cccc(NC(=O)Nc2cccs2)c1 | 10 | ? | -1.7% | -1.2% | 5 | -0.3 | -10
Cc1sc2nc(CSCC(=O)N(CCC#N)c3ccccc3)[nH]c(=O)c2c1C | 8.8 | 3% | -0.1% | -5.2% | 9 | 1.6 | -2
CN1/C(=C/C=N/NC(=O)c2ccc([N+](=O)[O-])cc2)C(C)(C)c2ccccc21 | / | 15% | 4.2% | -0.7% | -8 | 0.2 | ?
O=C(/C=C/c1ccc(O)c(O)c1)OCCc1ccccc1 | 0.4&-1.2&3.6 | ? | 8.3%&0.9% | -5.5% | 26 | 0.2 | /
S=C(NC1CCCC1)N1CCN(c2cccc(Cl)c2)CC1 | 4.7 | 20% | 1.2% | -1.0% | -13 | 1.4 | 4
O=C(CCn1c(=S)oc2ccccc21)NC1CCCCC1 | 2.5 | 3% | 4.6% | 0.9% | / | / | 0
Cc1nc(N)ncc1C(=O)Nc1ccccc1 | 3.6 | ? | -0.6% | -1.4% | 2 | -0.7 | 24
CC(=O)c1cnc2c(-c3cccc(Br)c3)cnn2c1C | 5.1 | 2% | -0.4% | ? | -16 | 0.3 | -7
CCCCn1c(N)c(N(CC(C)C)C(=O)c2cc(S(=O)(=O)N3CCCCC3)ccc2C)c(=O)[nH]c1=O | / | / | -2.6% | / | -9 | 1.0 | -3
O=C(CNC(=S)N(CCCN1CCOCC1)Cc1cccs1)NC1CCCCCCC1 | 0.0 | 2% | -1.3% | -2.2% | 0 | 0.6 | -13
CC1CCC2(CC1)NC(=O)N(CC(=O)Nc1ccc3c(c1)OCCO3)C2=O (stereo not given) | 0.2 | 4% | 4.7% | / | ? | 0.6 | 5
O=C(O)CCC(=O)N1CCN(S(=O)(=O)c2ccc3ccccc3c2)CC1 | / | -1% | -0.3% | / | 27 | 0.7 | 8
COc1ccc(C(c2nnnn2C2CCCC2)N2CCC(C)CC2)cc1 (stereo not given) | 6.0 | -5% | 0.8% | -0.4% | 30 | 1.7 | -31
COc1ccccc1C(=O)NC(CCSC)C(=O)N1CCC(Cc2ccccc2)CC1 (stereo not given) | / | / | 2.2% | / | 15 | 5.0 | -19
CCC(C)NC(=O)C1CCC(CNS(=O)(=O)c2ccccc2)CC1 (stereo not given) | -5.9 | 21% | 0.1% | -1.8% | / | / | -13
Cc1ccc(-c2nnc(Cc3ccc(Cl)cc3)o2)cc1 | 6.2 | 2% | 12% | -0.3% | 39 | -0.8 | -2
Cc1ccc(N2CCN(S(=O)(=O)N(C)C)CC2)cc1C | 2.7 | 13% | 2.6% | / | -4 | 0.4 | -18
CC(NCC(=O)Nc1ccccc1C(=O)NC1CC1)c1ccccc1Cl (stereo not given) | / | / | 1.2% | -1.7% | -13 | 1.2 | -2
Cn1c(OCc2cccnc2)nc2c1c(=O)n(Cc1ccc(F)cc1)c(=O)n2C | 2.0 | -2% | 2.7% | 1.1% | 4 | 0.9 | -9
Cc1ccc(C(=O)N2CCN(c3cc4c(cc3[N+](=O)[O-])n(C)c(=O)n4C)CC2)cc1 | -0.1 | -8% | 4.4%[38.3 µM] | -4.2% | -10 | -0.4 | 3
Cc1cc(C)cc(OCC(=O)N2CCCCCC2)c1 | 3.4 | 3% | 2.0%[38.3 µM] | -0.4% | -14 | -0.1 | -21
CCOc1ccc(-c2c(=O)n(OCc3ccc([N+](=O)[O-])cc3)c3ccccc3[n+]2[O-])cc1 | 5.2 | -14% | / | / | / | / | 11
CC(=O)c1ccc(N2CCN(C(=S)Nc3cc(C)ccc3C)CC2)cc1 | 1.7 | 10% | 13% | -3.9% | 42 | 0.9 | -6
COc1cc(CN2CCCC(C(=O)c3ccc(C(C)(C)C)cc3)C2)cc(OC)c1O (stereo not given) | 3.4 | 15% | 7.6% | / | 15 | 0.6 | -39
CC1CC(C)CN(S(=O)(=O)c2ccc(Oc3ccc([N+](=O)[O-])cc3)cc2)C1 (stereo not given) | 4.3 | -4% | 0.1% | -14% | 47 | -1.2 | -12

Copied from the list:
O=C(CCn1c(=S)oc2ccccc21)NC1CCCCC1 in TRPV1 potentiator shows 0
CCCCn1c(N)c(N(CC(C)C)C(=O)c2cc(S(=O)(=O)N3CCCCC3)ccc2C)c(=O)[nH]c1=O in PINK1 modulator shows -2.6%

The listing continues:
SMILES | Menin-MLL FL inh | Sfp PPTase inh | PINK1 modulator | ClpP mod | TRPML1 blocker | TRPML1 ag | TRPV1 potentiator
CCNC(=O)N(CCOC)CC1CCCN(C2Cc3ccccc3C2)C1 (stereo not given) | -8.6 | 3% | 2.8% | / | 3 | -0.4 | -14
Cc1nc2ccccc2c(=O)n1NC(=O)c1ccc([N+](=O)[O-])cc1 | -2.9 | 16% | 1.2% | / | -2 | 1.3 | -4
CCOC(=O)Cc1ccc(NC(=O)N(Cc2ccc(OC)cc2)C2CCN(C(C)=O)CC2)cc1 | / | / | -0.8% | -1.5% | 9 | 0.3 | /
O=C(NCc1cccc(OC(F)(F)F)c1)c1cccc2c1C(=O)c1ccc(-c3ccc(F)cc3OCc3ccccc3)cc1S2(=O)=O | / | / | 1.4% | 1.1% | -5 | 0.2 | /
O=C(COC(=O)/C=C/c1cccc(F)c1)NC1CCCCCC1 | / | / | 5.8% | -2.6% | 11 | 2.1 | /
Cc1ccc(NC(=O)/C(Cl)=C/c2ccccc2)cc1C | 1.5 | -12% | 6.6% | -1.5% | 1 | -0.5 | -18
CCc1ccc(NC(=S)Nc2ccc3cn[nH]c3c2)cc1 | 2.8 | -4% | -0.3% | -0.5% | 9 | -1.9 | -10

Assay outcomes as filed in PubChem BioAssay.

An unsorted share of the library; any-hit rate near 4.4%.
